Bioassay records as filed in PubChem.
MLL AF4-AF9 inh = blocks AF4 peptide binding to human AF9; P42568; AlphaScreen, biotin-AF4 peptide binding to FLAG-AF9; inhibition, % at 10 µM; actives 0.47% (n = 350,000); AID 651704;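 active = every replicate reaching a set inhibition limit, whatever the replicate mean, cut at about 25% in these data; inconclusive = mean inhibition reaches that limit but some replicates miss it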;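 note: 0% = plate neutral control median and 100% = total signal loss; the record names both 10 and 1 µM as test concentration; the first replicate is given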
Target sequence (P42568 whole entry, looked up): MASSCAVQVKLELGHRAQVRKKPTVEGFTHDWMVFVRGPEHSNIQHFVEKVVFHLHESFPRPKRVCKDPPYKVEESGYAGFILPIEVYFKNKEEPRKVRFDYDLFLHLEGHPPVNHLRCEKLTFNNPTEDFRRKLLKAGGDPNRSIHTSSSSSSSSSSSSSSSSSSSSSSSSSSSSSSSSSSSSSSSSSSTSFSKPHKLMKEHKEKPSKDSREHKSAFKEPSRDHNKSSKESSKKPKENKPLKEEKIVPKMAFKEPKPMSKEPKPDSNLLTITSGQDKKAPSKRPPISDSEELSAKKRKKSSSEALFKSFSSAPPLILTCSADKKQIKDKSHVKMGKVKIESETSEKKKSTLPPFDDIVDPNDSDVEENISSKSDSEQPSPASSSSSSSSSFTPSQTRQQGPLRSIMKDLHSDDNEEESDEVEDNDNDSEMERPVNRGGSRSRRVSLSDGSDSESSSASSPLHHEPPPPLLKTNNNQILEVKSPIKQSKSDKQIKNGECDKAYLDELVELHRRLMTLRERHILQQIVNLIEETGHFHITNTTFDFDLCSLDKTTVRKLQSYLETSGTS
FGF22 binding = binders of recombinant human FGF22 by thermal shift | actives 1.5% (n = 340,000) | SYPRO orange fluorescence; percent of sucrose octasulfate shift, DMSO zero | calls only at 9.99 µM | AID 651658;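 active = melting point raised past a set limit in the mean and every replicate; inconclusive = no clear call; three in four hits are not shown here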
Target sequence (Q9HCT0 whole entry, looked up): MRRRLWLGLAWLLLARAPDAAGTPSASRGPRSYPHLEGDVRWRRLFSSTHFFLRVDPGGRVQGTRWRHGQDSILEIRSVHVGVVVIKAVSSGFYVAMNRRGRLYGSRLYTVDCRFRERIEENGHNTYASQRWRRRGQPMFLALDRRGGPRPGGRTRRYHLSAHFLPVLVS
Vif TR-FRET = HIV-1 Vif–A3G interaction blockers – biochemical, TR-FRET, GST-Vif 1-94, biotin-A3G peptide, dose response retest, primary screen (AID 1117319) | TR-FRET GST-Vif / biotin-A3G peptide binding; higher % means a stronger effect; test concentration not given here; strong numbers were not always called active | inhibition, %, or IC50 in µM where a hit was titrated | actives 0.57% (n = 260,000);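 active = above the screen mean plus three standard deviations and confirmed in dose response; inconclusive = results disagree or hit not tested in dose response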;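 note: Vif residues 1-94 fused to GST binding biotinylated APOBEC3G peptide 110-148; 0% = full assay without inhibitor and 100% = GST in place of GST-Vif; retest series ran down from 100 µM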
HNF4A DNA FP = change in binding of human HNF4 alpha to DNA; HNF4a-FITC DNA binding, fluorescence polarization, 1 h; AID 1224865; P41235; activity change, % at 10 µM; actives 0.3% (n = 360,000); in the data active = activity change above about 30%, passing the limit was not always enough;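 note: controls were the assay level and a saturating level of protein; the project sought stronger binding though the title names inhibitors; some compounds called inactive have numbers as strong as hits; positive values seem to mean higher polarization but the record does not say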
ALR inh = human ALR oxidase inhibition via reduced H2O2; AID 485317; actives 3.8% (n = 290,000); purified ALR, DTT oxidation, H2O2 HRP-luminol luminescence; P55789; inhibition, % (no concentration beside the values);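 active = mean and each replicate at 75% or more; inconclusive = only one of the two met; inactive = neither met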;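 note: stock transfer was 7.5 nL into about 7.5 µL; 0% = neutral wells and 100% = wells with inactivated enzyme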
Target sequence (P55789 whole entry, looked up): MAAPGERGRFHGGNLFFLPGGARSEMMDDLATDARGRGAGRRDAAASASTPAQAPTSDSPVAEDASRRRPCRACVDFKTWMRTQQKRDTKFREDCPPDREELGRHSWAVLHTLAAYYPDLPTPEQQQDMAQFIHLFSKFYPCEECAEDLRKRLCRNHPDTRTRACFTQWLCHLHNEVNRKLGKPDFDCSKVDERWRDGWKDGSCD
rRNA inh HTS = inhibitors of bacterial rRNA selective over humanized ribosomes; GFP signal change (wild-type ribosome), % (no concentration beside the values); E. coli WT GFP vs humanized-ribosome RFP mutants, fluorescence, 24 h; hits give low values; DMSO median 0, no signal -100; actives 1.6% (n = 350,000);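 active = significant combined selectivity score with lowered wild-type GFP, culture density cut under 30%, mutant RFP and density less affected; inactive = any of these conditions unmet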; note: one replicate is shown; some compounds called inactive have numbers as strong as hits
Ecoli growth = E. coli growth inhibition; Escherichia coli growth, OD600, 23 h; hits give low values; actives 0.21% (n = 330,000); AID 1053175; OD600 absorbance (concentration not given with the values);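 active = OD600 absorbance below the run mean of sample wells minus 3.6 SD, in any replicate, cut at about 0.56 in these data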;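 note: stock transfer was 300 nL into about 60 µL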
rRNA inh HTS OD600 = recorded beside rRNA inh HTS, whose call it bears; OD600 change, %; measured here: OD600 growth;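 optical density of the mix in the first replicate; 0 = DMSO median and -100 = no signal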
rRNA inh HTS RFP = further read-out of rRNA inh HTS, marked with its call; RFP signal change, %; measured here: RFP humanized mutant strains;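 first replicate; 0 = DMSO median and -100 = no signal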
Numbers without * were called inactive; i = inactive; ? = inconclusive; . = not tested or not shown.

SMILES	MLL AF4-AF9 inh	FGF22 binding	Vif TR-FRET	HNF4A DNA FP	ALR inh	rRNA inh HTS	rRNA inh HTS OD600	rRNA inh HTS RFP	Ecoli growth
Cc1ccc(-c2ccccc2[C@@H]2C[C@H]3CN(C)C(=O)[C@]34CCCN24)o1	0.1	i	12%	5.4	-10	12	1	55	0.7
C[C@@H]1CN([C@H](C)CO)C(=O)c2cc(C3=CCCC3)cnc2O[C@H]1CN(C)Cc1ccccc1C(=O)O	-3.5	i	.	.	.	8	1	-0.3	.
COc1ccc(-n2c(=O)c3c4c(sc3n3c(=S)[nH]nc23)COC(C(C)C)C4)cc1 (stereo not drawn)	-5.3	i	-7%	-3.2	97*	.	.	.	0.7
CC(=O)Nc1ccc(NC(=O)CSc2nnc(CNc3ccc(F)cc3)n2CC2CCCO2)cc1 (stereo not drawn)	0.1	i	-8%	-4.2	.	12	9	0.1	0.66
CCOC(=O)C1(Cc2ccccc2)CCN(Cc2ccc(COC)o2)CC1	0.9	i	-1%	-4.7	-4	2	-1	-3.0	0.71
CC(C)(C)OC(=O)N1CCC[C@H]1c1nnc(SCc2c(Cl)cccc2Cl)o1	.	.	-3%	-0.5	-7	.	.	.	0.73
CCCNC(=O)c1csc(Nc2cccc3ccccc23)n1	-3.1	i	2%	-0.6	-46	-8	-29	-2.9	0.66
O=C(CNc1ccc(F)cc1F)NC(=O)NCc1ccco1	-1.7	i	15%	0.9	-6	7	2	1.2	0.67
O=C(CCN1C(=O)S/C(=C\c2ccccc2)C1=O)N1CCCCC1	4.7	i	-3%	-2.1	-3	-10	-21	0.7	0.69
CN1C(=O)c2cc(NC(=O)c3cccs3)ccc2OC[C@H]2O[C@H](CC(=O)N3CCCCC3)CC[C@@H]21	-0.5	i	.	.	.	1	1	-0.1	.
O=C(CNC(=O)c1ccccc1F)OCCCOC(=O)CNC(=O)c1ccccc1F	-3.7	i	4%	-3.3	-1	4	8	-1.5	0.68
OC(c1ccc(F)c(F)c1)c1nc(-c2ccoc2)cs1 (stereo not drawn)	-3.5	i	.	11	.	1	8	4.5	.
O=C(CCc1c[nH]c2ccccc12)NCCOc1ccccc1	-1.8	i	.	-1.8	15	8	4	0.6	0.68
C[C@H]1CN([C@@H](C)CO)C(=O)c2cccc(NC(=O)C3CC3)c2O[C@@H]1CN(C)Cc1ccccc1	1.4	i	.	.	.	-5	-1	-2.2	.
CC(=O)Nc1ccc(S(=O)(=O)Nc2nccc(C3Cc4ccccc4C(=O)O3)n2)cc1 (stereo not drawn)	.	.	11%	-0.7	-4	.	.	.	0.72
CCCCCC(=O)N1C[C@H](n2cc(C3CC3)nn2)[C@@H](O)C[C@@H]1c1ccc(OC)cc1	-1.0	i	-1%	2.6	.	20	7	2.3	.
Cc1ccc(S(=O)(=O)N2CCc3ccccc3C2CC(=O)O)cc1 (stereo not drawn)	5.4	i	1%	0.5	.	0	2	-2.7	0.69
COc1ccccc1C(=O)NCCC(=O)N1CC=C(c2ccccc2)CC1	-13	i	8%	2.8	-27	-4	-23	-0.2	0.62
O=C(N=C1N=C2C=CC(Br)=CN2Cc2ccccc21)c1ccc([N+](=O)[O-])cc1[N+](=O)[O-]	15	i	-1%	-2.0	.	5	11	-2.9	.
CC(C)NC(=O)COC(=O)c1ccc(Cl)c(S(N)(=O)=O)c1	-3.2	i	5%	-2.1	.	6	9	-0.2	0.7
NS(=O)(=O)c1ccc(NC(=S)N2CCN(c3ccccc3Cl)CC2)cc1	.	.	.	-2.1	-23	.	.	.	0.69
COc1cc(CN2CCN(C(=O)c3ccc(-c4ccccc4)cc3)CC2)cc(OC)c1OC	3.9	i	1%	0.8	.	-26	-21	2.4	0.68
CCn1cc(C(=O)N2CCN(Cc3ccc4c(c3)OCO4)CC2)c(=O)c2ccc(C)nc21	.	.	2%	-1.1	12	.	.	.	0.71
C=CCN(c1ccccc1OC)S(=O)(=O)c1cccc(C(=O)NCc2ccco2)c1	-0.9	i	-1%	-2.5	-1	12	3	1.1	0.72
CN(CC(=O)N1CC=C(c2ccccc2)CC1)S(=O)(=O)c1ccc2c(c1)c(=O)n(C)c(=O)n2C	0.2	i	-4%	4.7	.	2	0	6.1	0.73
Next section:
SMILES	MLL AF4-AF9 inh	FGF22 binding	Vif TR-FRET	HNF4A DNA FP	ALR inh	rRNA inh HTS	rRNA inh HTS OD600	rRNA inh HTS RFP	Ecoli growth
O=C1C(C=NCC2CCCO2)=C(O)c2ccccc21 (stereo not drawn)	.	.	20%	-0.8	1	.	.	.	0.67
COc1ccc(S(=O)(=O)N2CCCC(N(C)CCc3ccccc3)C2)cc1OC (stereo not drawn)	5.7	i	.	0.9	0	12	10	2.2	0.67
O=C(Cn1ccc2ccccc21)Nc1ccc2c(c1)OCO2	1.5	i	-10%	0.5	-2	15	8	2.8	0.71
Cn1c(=O)cc(SCC(=O)NCC2CCCO2)c2ccc(Cl)cc21 (stereo not drawn)	.	.	-5%	-3.1	-7	.	.	.	0.68
Cc1cccc(NC(=O)CSc2cccc[n+]2[O-])c1C	0.4	.	-4%	-2.5	.	4	8	-1.1	0.66
COc1cccc(C(=O)NC2CCN(C(=O)N3CCCCC3)CC2)c1	.	.	19%	-1.6	.	.	.	.	0.74
COCC(C)NC(=O)CCS(=O)(=O)c1nc(-c2ccc(OC)cc2)cc(C(F)(F)F)n1 (stereo not drawn)	.	.	-12%	5.5	97*	.	.	.	0.74
COc1ccc(CN2CCCC(CNC(=O)c3ccc(F)cc3)C2)cc1OC (stereo not drawn)	-1.3	i	0%	4.0	7	18	13	3.9	0.64
Cc1ccc(NC(=S)Nc2ccc(S(=O)(=O)N3CCOCC3)cc2)cc1S(=O)(=O)N1CCOCC1	2.4	i	20%	1.7	38	0	4	-3.8	0.71
COc1ccc(/C=N/NC(=O)C(C)n2nnc3ccccc32)cc1OC (stereo not drawn)	.	.	5%	-0.7	31	.	.	.	.
COc1ccc(-c2nnc(SCC(=O)NC3CCCCC3)o2)cc1OC	-1.3	i	5%	3.2	-3	-7	-5	-1.7	0.73
C[C@@H]1CCCCO[C@@H](CN(C)Cc2ccncc2)[C@H](C)CN([C@H](C)CO)C(=O)c2cc(NC(=O)Nc3ccc(C(F)(F)F)cc3)ccc2O1	4.6	i	.	.	.	2	-22	11	.
Cc1sc2ccccc2c1CNC[C@H]1O[C@@H](n2ccc(=O)[nH]c2=O)[C@H](O)[C@@H]1O	-4.5	i	.	1.4	.	0	10	2.1	.
Cc1c(C(=O)NNC(=O)c2ccccc2O)oc2ccccc12	1.0	i	16%	-2.1	.	-15	-11	1.6	.
COc1ccc(NC(=O)CN(C)CC(=O)NC(=O)NC2CCCCC2)cc1	-0.4	i	.	8.5	.	.	.	.	0.67
C[C@H](NS(=O)(=O)c1ccc(Cl)c(Cl)c1)C(=O)OCc1cc(=O)n2cc(Br)ccc2n1	.	.	-7%	-4.4	-2	.	.	.	0.73
CC(=O)c1ccc(OCc2cc(C(=O)NCCc3ccc(Cl)cc3)no2)cc1	-5.0	i	.	-5.5	-5	-2	0	1.2	0.72
CCS(=O)(=O)N1[C@H](C#N)[C@@H](c2ccc(C#Cc3ccccc3F)cc2)[C@H]1CO	-3.1	i	.	.	.	-1	-32	-3.1	.
COc1ccc(C#Cc2ccc3c(c2)[C@H]2[C@H](CCN2C(=O)CC2CC2)[C@@H](CO)N3)cc1	4.1	i	.	.	.	-5	9	-2.4	.
COc1ccc(S(=O)(=O)N2CCOCC2)cc1NC(=O)CCNC(=O)c1ccc(Br)cc1	-17	i	-5%	9.3	-10	-4	-1	0.4	0.69
CCc1ccc(NC2CC(=O)N(CCc3ccc(OC)c(OC)c3)C2=O)cc1 (stereo not drawn)	4.2	i	-10%	0.9	-2	-2	4	-0.9	0.7
Cn1c(=O)c2c([nH]c(=S)n2Cc2ccc(Cl)cc2)n(C)c1=O	-8.6	i	-4%	1.4	50	1	8	-2.5	0.71
CC(C)CCNC(=O)C(=O)Nc1cc2c3c(c1)CC(=O)N3CCC2	-3.4	i	1%	-1.5	15	0	7	-2.1	0.69
Cc1cc(NS(=O)(=O)c2ccccc2)n(-c2ccccc2)n1	.	.	1%	4.0	.	.	.	.	0.7
CCCS(=O)(=O)c1nc(S(=O)(=O)c2ccc(C)cc2)c(NCCCn2ccnc2)s1	3.1	i	.	3.6	5	-1	2	-0.9	0.71
(listing goes on)
SMILES	MLL AF4-AF9 inh	FGF22 binding	Vif TR-FRET	HNF4A DNA FP	ALR inh	rRNA inh HTS	rRNA inh HTS OD600	rRNA inh HTS RFP	Ecoli growth
C[C@H]1CN([C@@H](C)CO)C(=O)c2c(c3ccccc3n2C)-c2ccccc2CO[C@H]1CN(C)S(=O)(=O)c1ccc(C(F)(F)F)cc1	2.4	i	.	.	.	6	9	-6.3	.
O=C(O)CCc1ccc(S(=O)(=O)NCCc2ccccc2)cc1	.	.	3%	-4.4	1	.	.	.	0.63
CCO[C@H]1OC(C(=O)NCc2ccccc2)=C[C@@H](c2ccc(Br)cc2)[C@@H]1CCCO	-0.7	i	-5%	1.2	-2	-43	-57	3.7	.
C[C@H]1CN([C@@H](C)CO)C(=O)Cc2cc(NC(=O)C3CC3)ccc2O[C@@H]1CN(C)C(=O)NC1CCCCC1	-2.5	i	.	.	.	5	1	-2.5	.
Cc1c(Cl)ccc(S(=O)(=O)NCCCn2ccnc2)c1Cl	2.5	i	.	0.5	-4	-14	-8	-0.7	0.72
CC12CCC(C(=O)NCc3ccc4c(c3)OCO4)(C(=O)C1=O)C2(C)C (stereo not drawn)	.	.	6%	3.2	13	.	.	.	0.72
COc1ccc(S(=O)(=O)N2CCOCC2)cc1NC(=O)COc1ccc2ccc(=O)oc2c1	-2.4	i	3%	0.6	.	1	4	1.2	0.69
Nc1nc(N)c2ncc(C(=O)CCc3ccccc3)nc2n1	3.9	i	?	5.1	-5	8	6	4.2	0.59
Clc1ccc(Cl)c(OCCCCN2CCCCC2)c1	6.9	i	.	-0.1	-10	9	0	0.6	0.69
CNC[C@@H]1Oc2ccc(NC(=O)Nc3ccc4c(c3)OCO4)cc2C(=O)N([C@H](C)CO)C[C@H]1C	4.6	i	.	.	.	3	9	-1.6	.
Cc1ccccc1-n1c(SCc2csc(Nc3ccccc3)n2)nnc1-c1cccnc1	.	.	7%	3.9	-5	.	.	.	0.71
c1ccc(CC2CCN(C3=Nc4cccc5cccc3c45)CC2)cc1	.	.	4%	10	-38	.	.	.	0.66
Cc1nn2c(NCCCN(C)C)c3c(nc2c1-c1ccccc1)CCC3	.	.	12%	-3.3	88*	.	.	.	0.69
COc1ccc(-n2c(=S)[nH]c3cc(C(=O)NCCCN4CCCC4=O)ccc3c2=O)cc1OC	.	.	0%	3.1	0	.	.	.	0.72
Cc1nn(Cc2ccc(F)cc2)c(C)c1NC(=O)C1c2ccccc2Oc2ccccc21	.	.	16%	0.3	-2	.	.	.	0.72
COC(=O)c1cc(N2CCN(C)CC2)nc2ccccc12	2.8	i	.	-65	-62	11	3	-0.6	0.63

Look-ups from the entries so far.
CC12CCC(C(=O)NCc3ccc4c(c3)OCO4)(C(=O)C1=O)C2(C)C (stereo not drawn) | Vif TR-FRET = 6%
COc1ccc(S(=O)(=O)N2CCOCC2)cc1NC(=O)COc1ccc2ccc(=O)oc2c1 | Ecoli growth = 0.69
CNC[C@@H]1Oc2ccc(NC(=O)Nc3ccc4c(c3)OCO4)cc2C(=O)N([C@H](C)CO)C[C@H]1C | MLL AF4-AF9 inh = 4.6

An excerpt; rates above refer to the full screens.
